VDR inhibitor – Inhibitors of the vitamin D receptor (VDR): qHTS. Potency, µM, for the others: max response, negative = inhibition, usual class: inhibitors. AID 504847, 2011. actives 0.93% (n = 400,000). Vitamin D3 receptor (Homo sapiens), P11473. VDR-SRC2-3 peptide fluorescence polarization, 2 h; active = well fitted inhibition curve with a large enough effect; inconclusive = small, poorly fitted or top-dose-only effect, or another doubt; inactive = no such curve, though single readings can be large or run the other way; also: series mostly up to about 120 µM
Target sequence (P11473 whole entry, looked up): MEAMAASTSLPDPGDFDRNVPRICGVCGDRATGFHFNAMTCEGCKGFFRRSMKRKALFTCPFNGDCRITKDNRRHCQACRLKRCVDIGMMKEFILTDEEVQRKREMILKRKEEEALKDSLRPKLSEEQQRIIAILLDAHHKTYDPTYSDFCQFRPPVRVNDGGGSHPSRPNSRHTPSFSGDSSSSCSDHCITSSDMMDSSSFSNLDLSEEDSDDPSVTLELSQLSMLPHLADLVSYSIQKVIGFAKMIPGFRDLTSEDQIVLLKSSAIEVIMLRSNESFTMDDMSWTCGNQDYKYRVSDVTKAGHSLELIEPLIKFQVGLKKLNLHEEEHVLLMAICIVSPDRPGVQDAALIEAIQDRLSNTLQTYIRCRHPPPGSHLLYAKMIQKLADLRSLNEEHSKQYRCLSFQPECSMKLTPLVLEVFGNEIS
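Signal is fluorescence polarization, reporting how far test compounds block the interaction of VDR with the SRC2-3 coregulator peptide after a 2 h room-temperature incubation.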
Starred values were filed as active, the others as inactive; u = inconclusive; & = joins results of further samples. % is scaled to controls: 0 for no effect and ±100 for the full control effect; potency is read from the fitted curve at half-maximal effect.

SMILES | VDR inhibitor
O=CNc1cc2c(cc1Br)-c1ccccc1C2O (stereo unspecified) | 2%
CN(C)c1ccc(/C=C/c2cc[n+](C)cc2)cc1 | -27%
C=CCn1c(SCC(=O)N(C(C)CC)C2CCS(=O)(=O)C2)nc2ccccc2c1=O (stereo unspecified) | 0%
CC(NC(=O)COC(=O)c1cc2ccccc2cc1O)c1ccccc1 (stereo unspecified) | -4%
CC1(C)C(c2ccccc2)=NC(c2ccccc2)N1O (stereo unspecified) | 9%
COc1ccc(C(=O)c2sc(Nc3ccccc3)nc2N)cc1 | 4%&8%
COc1cccc(-n2c(CNC(=O)OC(C)(C)C)n[nH]c2=S)c1 | 3%
Cc1ccc(C(=O)NCCN2CCCC2)cc1 | 7%
CCCCOc1cccc(NC(=O)CSc2nccn2C)c1 | 8%
O=C(NCc1ccncc1)C(=O)Nc1nc2ccccc2s1 | -1%
O=C(OCCOCCN=C1NS(=O)(=O)c2ccccc21)c1ccccc1 | -5%
COc1ccc(CN2CCNC(=O)C2CC(=O)NCCc2nc(C)c(C)s2)cc1C (stereo unspecified) | 0%
CCOC(=O)c1ccc(NC(=O)CCS(=O)(=O)c2cccc3nonc23)cc1 | 5%
COc1ccc(OC)c(NC(=O)Nc2nnc(N3CCCCC3C)s2)c1 (stereo unspecified) | -16%
Cc1cc(=O)oc(C)c1C(=O)NC1CCCCCCC1 | 15%

Next part, starting with the last 2 of the part before.
SMILES | VDR inhibitor
COc1ccc(OC)c(NC(=O)Nc2nnc(N3CCCCC3C)s2)c1 (stereo unspecified) | -16%
Cc1cc(=O)oc(C)c1C(=O)NC1CCCCCCC1 | 15%
CC(=O)c1sc(NC(=O)c2cccnc2Cl)nc1C | -3%
Cc1ccc2oc(=O)c3cnn(CC(=O)N4CCN(c5ccccc5)CC4)c3c2c1 | u
COc1ccc(CCNC(=O)COC(=O)/C=C/c2ccc(OC)c(OC)c2)cc1 | -3%
O=C(c1csnn1)N1CCC2(CC1)CN(c1ccccn1)C2 | 5%
CCN1CCC(C(N)=O)CC1 | -4%
O=C(CNC(=O)N1CC(=O)Nc2ccccc21)NCc1ccc(Cl)cc1 | -9%
Cc1cc(=O)n2nc(N3CCCC(C(=O)NCc4ccccc4)C3)sc2n1 (stereo unspecified) | -7%
Cc1ccc(CNc2nc(N)c([N+](=O)[O-])c(Nc3ccc(F)cc3)n2)cc1 | 2%
CCCC(=O)c1cc(F)c(N2CCOCC2)cc1C | -6%
COc1ccc(CNC(=O)c2ccccc2SCC(=O)N2CCCC2)cc1OC | -2%
COc1cccc(C2N(c3cccc(Cl)c3)C(=O)C3CCCN32)c1 (stereo unspecified) | 12%
CC1CCC(NCc2ccco2)CC1 (stereo unspecified) | 1%
CC(=O)N1CCN(c2ccc(NCc3cccs3)cc2)CC1 | -18%
Cc1c(C(=O)NCc2cccnc2)oc2ccccc12 | -11%
COc1ccc(NC(=O)c2nc(C)c(C3(C)CC(c4cccnc4)=NO3)s2)cc1 (stereo unspecified) | -15%
COc1ccc(S(=O)(=O)NCc2cccnc2)cc1NC(=O)c1ccccc1C | -8%
O=C(O)CCCCCNS(=O)(=O)c1ccc(Cl)cc1 | 15%
O=C(Nc1ccccc1Oc1ccsc1C(=O)O)c1ccccc1 | -15%
COc1ccc(-c2nc3cnc(Nc4cccc(OC)c4)nc3n(C3CC3)c2=O)cc1 | -21%
CCn1c(COc2cccc3ccccc23)nnc1SCC(N)=O | -11%
Cc1ccc(NS(=O)(=O)c2ccc3c(c2)CC(C)N3C(=O)C2CCC2)cc1Cl (stereo unspecified) | -5%
CC(=O)Nc1cc2nn(-c3ccccc3)nc2cc1C | 4%
COC(=O)c1c(C)nc(C)c(C(=O)OC)c1-c1cccs1 | -3%
O=c1c(C=NCCCO)c(-c2ccccc2)[nH]n1-c1nc2ccccc2s1 | -7%
CC(=O)NC(Cc1c[nH]c2ccccc12)C(=O)OCC(=O)Nc1cc(C)on1 (stereo unspecified) | -5%
CCCCN(CC)C(=O)CSc1nc2n[nH]c(C)c2c(=N)n1-c1cccc(Cl)c1 | 9%
Cc1ccc(CCC2C3=C(CCCC3=O)OC3=C2C(=O)CCC3)cc1 | 12%
Cc1ccc(C(=O)C(C)OC(=O)Cn2[nH]c(=O)c3ccccc3c2=O)cc1 (stereo unspecified) | -12%
CCn1c2ccccc2c2cc(NC(=O)CNC)ccc21 | -18%
CC(C)CN(C(=O)COC(=O)Cn1cnc2ccccc2c1=O)C1CCS(=O)(=O)C1 (stereo unspecified) | 10%
Clc1ccc(Cl)c(-c2ccc(/C=N/c3ncn[nH]3)o2)c1 | 11%
Oc1ccccc1N=Cc1c(O)ccc2oc3c(c12)CCCC3 | -19%
C[C@@H]1OC(Oc2ccccc2-c2cc(=O)c3c(O)cc(O)c([C@@H]4O[C@H](CO)[C@@H](O)[C@H](O)[C@H]4O)c3o2)[C@H](O)[C@H](O)[C@H]1O (stereo partly specified) | -2%
O=C(NC1CCN(C(=O)C2CCCCC2)CC1)c1ccccc1 | -4%
CC1=C(C(N)=O)C(c2ccco2)C(C(N)=O)=C(C)N1 | 8%
Cc1cc(C)c2c(n1)sc1c(=O)n(-c3ccccc3)c(=O)[nH]c12 | -12%
Cc1ccccc1-n1ncc2c1CC(C)(C)CC2NC(=O)c1cn[nH]c1C (stereo unspecified) | u
COc1ccccc1CNC(=O)[C@H](C)NC(=O)C1CCN(C(=O)[C@H](CCSC)NC(=O)OC(C)(C)C)CC1 | -25%
CCC(=O)N1CCN(c2ccccc2NC(=O)COc2ccc(C(C)C)cc2)CC1 | 4%
COc1ccc(OC)c(CCNC(=O)Cn2cccc2C(=O)c2ccccc2)c1 | 11%
CCOC(=O)c1[nH]c2ccccc2c1NC(=O)c1ccc(OCC)cc1 | 2%
N#Cc1nc(COc2ccc(Cl)cc2)oc1NCc1ccc2c(c1)OCO2 | -5%
O=C(OCc1ccccc1Cl)c1ccc(-c2nnn(Cc3ccccc3)n2)cc1 | -8%
COC(=O)C1=C(C(=O)OC)[C@@H]2N(C)c3ccccc3[C@@]23C[C@@H](C(=O)OC)N(C(=O)CC(C)C)C3=N1 | -23%
O=C(N/N=C\C=C\c1ccc([N+](=O)[O-])o1)c1cccs1 | -4%
CC(=O)N1CCCc2cc(S(=O)(=O)N3CCCC(C(=O)NCc4ccccc4)C3)ccc21 (stereo unspecified) | -3%&13%
CN(CC1CCN(CCc2cccc(C(F)(F)F)c2)CC1)C(=O)c1ccccc1 | -11%
CCOC(=O)N1CCN(C(=O)C2CCCN(S(=O)(=O)c3c(C)cc(C)cc3C)C2)CC1 (stereo unspecified) | -8%
COc1c(O)cccc1[C@H](O)C1CCN(CCc2ccc(F)cc2)CC1 | -10%
CCN=c1sc(C(=O)Nc2ccccc2)c(C)n1CC | -24%
O=C(CC1C(=O)NCCN1Cc1ccccc1C(F)(F)F)NC1CCC1 (stereo unspecified) | u
Cn1c(=O)c2c(ncn2CC(=O)OCC(=O)NC(c2ccccc2)c2ccccc2)n(C)c1=O | -1%
Clc1cccc(Cl)c1C[n+]1cccc2ccccc21 | 1%
CCN1C=CC2=C(C#N)C(N)C(C#N)(C#N)C(c3ccccc3C(F)(F)F)C2C1 (stereo unspecified) | -19%
CCN1C(=O)[C@H]2[C@@H](c3ccc(C)cc3)N3C(=O)N(c4cccc(Br)c4)C(=O)[C@@]3(CC(C)C)[C@H]2C1=O | 3%
Cc1cccc(NC(=O)CCN2CCOCC2)c1 | 4%
CCCCC(=O)N/N=C(/C)C1=C(C)C(C)(C)OC1=O | 4%
COc1ccc(S(=O)(=O)Nc2cc3c4c(c2)CCC(=O)N4CCC3)cc1C | 10%
O=C(Nc1cccc2cccnc12)c1ccc(Br)o1 | 6%
COc1ccc(CCNS(=O)(=O)c2ccc3c(c2)NC(=O)CCS3)cc1OC | -11%
The list goes on.
SMILES | VDR inhibitor
COc1ccccc1OCC(=O)N1CCCC(Nc2ccc(C)c(C)c2)C1 (stereo unspecified) | -16%
CC(=O)c1ccc(S(=O)(=O)N2CCN(C)CC2)cc1 | 0%
CCc1c(C)nc2ncnn2c1N1CCCC(C(=O)Nc2cc(F)ccc2C)C1 (stereo unspecified) | 3%
O=C1C(c2cccc(Br)c2)N(CCc2ccccc2)C(=O)CN1C1CCCCC1 (stereo unspecified) | -12%
Cc1ccc(NC(=O)C2=CC=CN3CCS(=O)(=O)N=C23)cc1 | 12%
CCOc1ccc(CCNC(=O)Cn2c(-c3cccs3)cc3cc(F)ccc32)cc1OCC | 1%
CC(C)c1ccc(OCC(=O)N(Cc2ccccc2)c2ccccn2)cc1 | 15%
CCn1c(C)nc2c(=O)oc3ccccc3c21 | 14%
O=C(O)c1cccc(Nc2nc(-c3ccccc3)nc3ccccc23)c1 | -15%
CCN(CC)CCNC(=O)Cn1nc(-c2ccccc2)c2ccccc2c1=O | -2%
COc1cc2c(C(=O)NCCCN3CC(C)CC(C)C3)cn(CC(C)C)c(=O)c2cc1OC (stereo unspecified) | -4%
O=C(Nc1ccc(Cl)cn1)c1ccc(Br)c(S(=O)(=O)N2CCCCC2)c1 | 14%
CCc1nnc(NC(=O)c2cnccn2)s1 | -8%
Fc1cccc(Cl)c1CNCc1cccnc1 | 11%
Cc1noc(C)c1COc1cccc(C(=O)OCCOc2ccc(F)cc2)c1 | 14%

Entries listed so far with an aryl thioether with sulfur outside any ring:
SMILES | VDR inhibitor
C=CCn1c(SCC(=O)N(C(C)CC)C2CCS(=O)(=O)C2)nc2ccccc2c1=O (stereo unspecified) | 0%
CCCCOc1cccc(NC(=O)CSc2nccn2C)c1 | 8%
COc1ccc(CNC(=O)c2ccccc2SCC(=O)N2CCCC2)cc1OC | -2%
CCn1c(COc2cccc3ccccc23)nnc1SCC(N)=O | -11%
CCCCN(CC)C(=O)CSc1nc2n[nH]c(C)c2c(=N)n1-c1cccc(Cl)c1 | 9%

Continued:
SMILES | VDR inhibitor
NC(CCC(=O)N[C@@H](CS)C(=O)NCC(=O)O)C(=O)O (stereo partly specified) | 4%
O=C(NNc1ccc([N+](=O)[O-])cc1)c1ccco1 | 7%
Cc1nc2c(C#N)c[nH]n2c(=O)c1CCO | 28µM*
Cc1noc(NS(=O)(=O)c2ccc(NC(=O)C(F)(F)C(F)(F)C(F)(F)F)cc2)c1C | -11%
O=C(CNS(=O)(=O)c1ccc(F)cc1)Nc1ccc(C(F)(F)F)cc1 | -6%
CCOC(=O)Nc1sc2c(c1C#N)CCC(C)C2 (stereo unspecified) | -13%
COc1ccc(S(=O)(=O)/N=C2\C=C(Nc3ccc(O)cc3)C(=O)c3ccccc32)cc1 | -6%
C/C(=N\Nc1nccnc1Cl)c1ccc(Br)cc1 | -1%
CC(=O)Nc1ccc(C(=O)NNC(=O)CCc2ccccc2)cc1 | 4%
O=C(NCc1ccccc1Cl)C1CCC(=O)N(C2CC2)C1 (stereo unspecified) | -11%
Cc1ccc(N(CCC#N)C(=O)COC(=O)C2=COCCO2)cc1 | 1%
COc1cc(OC)cc(-c2c(-c3cccs3)c3cc(-c4ccc(OC)c(OC)c4)ccc3n2C)c1 | -7%
Nc1ccc2c(c1)C(=O)c1cc(Cl)c(Cl)cc1-2 | -4%
CC(C)NS(=O)(=O)c1ccc(CCC(=O)N2CCCCC2)cc1 | -7%
[O-][n+]1onc2c1CCc1c-2nn(-c2ccccc2Cl)[n+]1[O-] | -12%
CCOc1nc(S(=O)(=O)c2ccc(C)cc2)c(Cl)s1 | 0%
COc1ccc(OC)c(C(C)NC(=O)Cn2c(=O)cc(C)c3c(C)nn(-c4ccc(C)cc4)c32)c1 (stereo unspecified) | 7%
CC(=O)N1CCCc2cc(S(=O)(=O)NC(C(=O)NCc3ccc(C)cc3)C(C)C)ccc21 (stereo unspecified) | 4%
CC1(C)CC(=O)C(C=NCCN2CCN(CC(=O)Nc3ccccc3)CC2)=C(O)C1 | -29%
CCOC(=O)c1cc2c(=O)n3ccccc3nc2n(C(C)C)c1=NC(=O)c1ccco1 | -1%
COc1cc(S(=O)(=O)NC2CCCCC2)ccc1Cl | 10%
O=C(NC1CC1)C1CC(=O)N(c2cccc(Cl)c2Cl)C1 (stereo unspecified) | 8%
CSc1ncc(C(=O)NCc2cccc(Br)c2)c(-c2ccccc2)n1 | -1%
Cc1cc(C)cc(N(C(C)C(=O)NC2CCCC2)S(C)(=O)=O)c1 (stereo unspecified) | 12%
CCC(=O)c1c[nH]c(C(=O)NCCCn2ccnc2)c1 | 22%
CCN(CC)CCCNC(=O)c1cc(-c2ccc(Cl)c(Cl)c2)on1 | 0%
CCN(CCCNC(=O)CNC(=O)Cn1cnc2ccccc2c1=O)c1cccc(C)c1 | -9%
Cc1cc(Cl)cc(C)c1OCCCCN1CCOCC1 | -3%
O=C(CSc1ncc(-c2ccc(F)cc2)n1Cc1ccco1)Nc1nccs1 | 14%
CCc1cc2c(cc3c(=O)n(CC(=O)NC(C)C)nc(CC)n32)s1 | 4%
O=C(c1cc2cc([N+](=O)[O-])ccc2s1)N1CCCCC1 | -4%
CC(C)OC(=O)CSc1ncnc2c1cnn2-c1ccccc1 | 5%
CCN(CC)c1ccc(NC(=O)CN2CCN(c3ccc(F)cc3)CC2)cc1 | -3%

An excerpt from above in order of count of non-hydrogen atoms, highest first.
SMILES | VDR inhibitor
CC(C)c1ccc(OCC(=O)N(Cc2ccccc2)c2ccccn2)cc1 | 15%
COc1ccc(C(=O)c2sc(Nc3ccccc3)nc2N)cc1 | 4%&8%
O=C(c1csnn1)N1CCC2(CC1)CN(c1ccccn1)C2 | 5%
O=C(NC1CC1)C1CC(=O)N(c2cccc(Cl)c2Cl)C1 (stereo unspecified) | 8%
Nc1ccc2c(c1)C(=O)c1cc(Cl)c(Cl)cc1-2 | -4%

3 of the entries above in order of their number in VDR inhibitor, low to high.
| SMILES | VDR inhibitor |
| --- | --- |
| CC1(C)CC(=O)C(C=NCCN2CCN(CC(=O)Nc3ccccc3)CC2)=C(O)C1 | -29% |
| Cc1cc(Cl)cc(C)c1OCCCCN1CCOCC1 | -3% |
| CC(C)OC(=O)CSc1ncnc2c1cnn2-c1ccccc1 | 5% |

Screens as filed in PubChem.

Not all compounds are listed, so the mix of outcomes need not match the whole.
